Screens as filed in PubChem.
Cruzain Triton: qHTS Assay for Promiscuous and Specific Inhibitors of Cruzain (with detergent); Cruzipain (Trypanosoma cruzi), P25779; purified cruzain, Z-FR-AMC fluorescence, 0.01% Triton; Potency, µM, inactives show max response, negative = inhibition, usual class: inhibitors; hit rate 0.43% among 200,000; AID 1478, 2009;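 further: plate controls were neutral wells for no effect and buffer without enzyme for full effect; nearly all actives have a fitted effect of over 40% in size; top concentration of the series not given in the record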
Target sequence (P25779 123-467 limits assumed): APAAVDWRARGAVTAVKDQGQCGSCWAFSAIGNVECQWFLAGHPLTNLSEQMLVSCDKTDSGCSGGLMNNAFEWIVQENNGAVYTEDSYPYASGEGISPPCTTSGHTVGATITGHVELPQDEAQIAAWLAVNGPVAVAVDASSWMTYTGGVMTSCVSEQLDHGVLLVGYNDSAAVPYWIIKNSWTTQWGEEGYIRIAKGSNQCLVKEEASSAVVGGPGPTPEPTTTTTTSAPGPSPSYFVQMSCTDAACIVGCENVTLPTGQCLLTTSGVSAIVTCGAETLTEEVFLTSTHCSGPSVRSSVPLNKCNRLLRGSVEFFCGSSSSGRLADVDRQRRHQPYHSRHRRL
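Steps: dispense cruzain (1.5 nM final) in acetate buffer pH 5.5 with DTT and 0.01% Triton X-100; pin-transfer compounds; incubate 15 min RT; add Z-FR-AMC (2 uM final); read fluorescence every 30 s, using the 60 s intensity change.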
RE007 growth inh: qHTS Assay for Inhibitors of the HIV-1 protein Vpr | Potency, µM (highest dose often 92.2 µM), for inactives: at the top dose activity change, negative = less growth | S. pombe RE007 Vpr strain, BacTiter-Glo ATP luminescence, 24 h; control for the full effect not named in the record | hit rate 0.21% among 360,000 | AID 651644, 2012; active = well fitted falling curve with a large enough effect; inconclusive = small, poorly fitted or top-dose-only effect; inactive = no such curve, though single readings can be large or run the other way;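 further: on the % scale 0 is the no-effect control and ±100 the full control effect; nearly all actives have a fitted effect of over 50% in size; the assay follows cell death caused by Vpr and the record does not say whether a fall means rescue or toxicity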
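Fission yeast RE007 carrying one integrated HIV-1 vpr copy, seeded at OD 0.01 in PMG+AL medium with 23 nL pinned compound. Grown 24 h at 30 degrees; viability read by BacTiter-Glo luminescence after 5 min.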
Cruzain noTriton: qHTS Assay for Promiscuous and Specific Inhibitors of Cruzain (without detergent). Cruzipain (Trypanosoma cruzi), P25779. purified cruzain, Z-FR-AMC fluorescence, no detergent. Potency, µM, for the others: max response, negative = inhibition, actives largely listed as inhibitors. hit rate 2.3% among 200,000;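 further: plate controls were enzyme without inhibitor for no effect and buffer without enzyme for full effect; nearly all actives have a fitted effect of over 40% in size; top concentration of the series not given in the record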
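Detergent-free condition (0.00005% Triton X-100) in acetate buffer pH 5.5 with DTT. 1.5 nM enzyme and compound were pre-mixed 15 min, then 2 uM Z-FR-AMC substrate added; reaction progress from fluorescence change between first and third reads (60 s).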
SARS PLP yeast: qHTS of Yeast-based Assay for SARS-CoV PLP | hit rate 0.19% among 330,000 | S. cerevisiae expressing SARS-CoV PLpro, growth rescue; control for the full effect not named in the record | Potency, µM (series often up to 32.9 µM), for inactives: at the top dose activity, positive = growth rescue | AID 485353, 2010; active means well fitted rising curve with a large enough effect; inconclusive means small, poorly fitted or top-dose-only effect; inactive means no such curve, though single readings can be large or run the other way; further: 0% is about no effect; nearly all actives have a fitted effect of over 55% in size; growth read by luminescence after 48 h
StopGo reporter: High Throughput Screening for Foot and Mouth Disease Virus Antivirals. human cells with a luciferase reporter of 2A StopGo recoding; control for the full effect not named in the record. Potency, µM (titrated, usually from 57.9 µM), for the others: at the highest dose signal change, negative = less light. hit rate 1.2% among 410,000; active = well fitted falling curve with a large enough effect; inconclusive = small, poorly fitted or top-dose-only effect; inactive = no such curve, though single readings can be large or run the other way; tested in HEK293T cells; further: on the % scale 0 is the no-effect control and ±100 the full control effect; nearly all actives have a fitted effect of over 45% in size; luciferase light after 4 h
MARV entry inh: qHTS for inhibitors of binding or entry into cells for Marburg Virus; Potency, µM (top dose mostly 37.8 µM), without a hit: at the highest dose activity change, negative = inhibition, hits mostly inhibitors; hit rate 1.8% among 300,000; Marburg virus pseudotyped entry inhibition, cell reporter; control for the full effect not named in the record; about a third of the inactives were read at about 46 µM; AID 540276, 2011; active = well fitted inhibition curve with a large enough effect; inconclusive = small, poorly fitted or top-dose-only effect, or effect the other way; inactive = flat fitted curve, though single readings scatter; tested in HEK293 cells; about a fifth of its hits are not listed in these tables; further: on the % scale 0 is the no-effect control and ±100 the full control effect; luciferase read-out
NS1 function inh: qHTS Assay for Inhibitors of Influenza NS1 Protein Function. hit rate 0.4% among 270,000. S. cerevisiae slowed by influenza A NS1, growth recovery by OD600. AID 2326, 2010. Potency, µM (top dose mostly 46.1 µM), inactives show top-dose activity, positive = more growth; active means well fitted rising curve with a large enough effect; inconclusive means small, poorly fitted or top-dose-only effect; inactive means no such curve, though single readings can be large or run the other way; further: nearly all actives have a fitted effect of over 50% in size
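OD600 was taken as the measure of yeast growth restored by compound in an NS1-expressing S. cerevisiae strain. Cells had been washed out of glucose medium and diluted 1:100 into galactose -URA medium, pH 6.0.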
LASV entry inh: qHTS for Inhibitors of binding or entry into cells for Lassa Virus; Lassa virus pseudotype entry inhibition, cell reporter; control for the full effect not named in the record; Potency, µM (doses to about 37.9 µM), without a hit: at the top dose activity change, negative = inhibition, usual class: inhibitors; hit rate 1.2% among 300,000; AID 540256, 2011; active means well fitted inhibition curve with a large enough effect; inconclusive means small, poorly fitted or top-dose-only effect, or effect the other way; inactive means flat fitted curve, though single readings scatter; tested in HEK293 cells; further: on the % scale 0 is the no-effect control and ±100 the full control effect; nearly all actives have a fitted effect of over 50% in size; luciferase read-out
Active calls of the source: *; ? = inconclusive; . = not tested or not shown; [ ] = remark or other dose. Unless noted, the call rests on the fitted dose curve; in most records, active means well fitted curve in the direction sought with a large enough effect; inconclusive means small, poorly fitted or top-dose-only effect, or another doubt; inactive means no such curve, though single readings can be large; an effect the other way counts as inactive or inconclusive. Potency means the concentration at half of the fitted maximal effect.

#	mol	Cruzain Triton	RE007 growth inh	Cruzain noTriton	SARS PLP yeast	StopGo reporter	MARV entry inh	NS1 function inh	LASV entry inh
1	Cc1ccc2c(c1)n([O-])c1c([n+]2=O)CCCC1	6.0%	0%	-4%	-1%	-5%	1%	0%	2%
2	CCSc1nsc(NC(=O)Nc2cccc(F)c2)n1	.	-15%	.	-23%	?	?	-134%	?
3	CS(=O)(=O)N1CCN(C(=O)c2ccc(Cl)s2)CC1	.	0%	.	0%	-7%	?	-2%	3%
4	O=C(COC(=O)Cn1cnc2ccccc2c1=O)Nc1ccccc1Sc1ccc(Cl)cc1	-7.7%	-25%	14%	-13%	-14%	?	-12%	-7%
5	Cc1cc(=O)[nH]c(SCc2cn3ccccc3n2)n1	.	-27%	.	0%	2%	-6%[46.1 µM]	.	?
6	CCc1ccc(C2=NN(C(=O)OC)C(O)(C(F)(F)F)C2)cc1 (stereo unspecified)	0.5%	-1%	2%	-1%	.	?	-3%	?
7	CCS(=O)(=O)c1oc(-c2ccc(F)cc2)nc1S(=O)(=O)c1ccc(Br)cc1	-7.4%	.	8%	.	14µM*	?	.	?
8	CC(=O)c1ccc(NC(=O)c2ccc(-c3nc(CSc4ccccc4)c(C)o3)cc2)cc1	-2.4%	.	10µM*	.	?	.	.	0%[46.1 µM]
9	COc1cc(NC(=S)N2CCN(S(=O)(=O)c3ccc(F)cc3)CC2)cc(OC)c1	.	-8%	.	5%	5%	21%	4%	?
10	CS(=O)(=O)N1CC(C(=O)NC2CC2)Oc2ccc(Cl)cc21 (stereo unspecified)	0.4%	-11%	-2%	-2%	0%	16%	7%	-1%
11	Cc1ccc(Sc2nc3ccc(C)cn3c(=O)c2/C=N/O)cc1	.	4%	.	3%	-8%	3%[46.1 µM]	-7%	9%
12	CN(C)CCCN(C(=O)c1ccc(S(=O)(=O)N2CCCC2)cc1)c1nc2c(F)cc(F)cc2s1	.	-18%	.	4%	5%	?	.	2%
13	CCc1n[nH]c(=S)n1/N=C/c1ccccc1OCc1ccc(Cl)cc1	.	4%	.	-1%	2%	14%[46.1 µM]	-4%	-7%[46.1 µM]
14	O=C(Nc1cccnc1)c1cc(-c2ccc(Br)cc2)nc2ccccc12	.	3%	.	-47%	-5%	?	-18%	?
15	CCCCNC(=O)c1ccccc1NS(=O)(=O)c1ccc2c(c1)OCCO2	0.1%	14%	4%	21%	19%	-17%	-7%	1%
16	CC(C)c1ccccc1OCC(=O)NC1CCCc2ccccc21 (stereo unspecified)	-12%	-11%	5%	-103%	-23%	?	-14%	-2%
17	CCN1C[C@]2(OC(=O)c3ccccc3NC(C)=O)CCC(OC)C34C5C[C@H]6C(OC)[C@]5(O)[C@](O)(C[C@@H]6OC)C(C[C@@H]32)[C@H]14 (stereo partly specified)	.	-2%	.	-1%	-18%	-5%[46.1 µM]	-1%	?
18	CCS(=O)(=O)N1CCC(C(=O)NC2CCCCC2)CC1	3.0%	9%	-2%	1%	.	20%	-5%	5%
19	CC(=O)c1cc(C)ccc1OC(=O)CN1C(=O)c2ccccc2C1=O	.	1%	.	2%	-4%	.	-6%	.
20	Cc1cc(=O)[nH]c(SCc2csc(-c3ccccc3)n2)n1	-18%	1%	-12%	-3%	6%	25%	-18%	20%
21	Cc1ccnc(N/C=C(/NC(=O)c2ccccc2)C(=O)NN)n1	.	6%	.	1%	-5%	-5%[46.1 µM]	.	1%[46.1 µM]
22	C=CCc1cccc(CNc2nc3ccccc3n2CC)c1O	-10%	-5%	-2%	0%	-26%	?	-92%	?
23	CCOC(=O)N1CCC(NC(=O)CC2C(=O)NCCN2Cc2ccccc2F)CC1 (stereo unspecified)	.	-6%	.	1%	-4%	.	4%	.
24	CN(C(=O)COC(=O)c1cncc(Br)c1)C1CCCCC1	.	-7%	.	2%	33%[activator]	?	.	14%
25	COc1ccccc1-n1c(SCC(=O)NCC2CCCO2)nc2c([nH]c3ccccc32)c1=O (stereo unspecified)	.	3%	.	-4%	-19%	?	14%	-19%[46.1 µM]
26	O=C(O)c1ccc(N2CCN(Cc3ccc4c(c3)OCO4)CC2)c([N+](=O)[O-])c1	.	7%	.	0%	-1%	15%[46.1 µM]	14%	-3%
27	O=c1[nH]c(=S)n(C2CC2)c(O)c1C=NCCc1ccccc1	.	-5%	.	-1%	-10%	9%	-1%	-17%
28	C=CCn1cnc2c(c1=O)c1nc3ccccc3nc1n2/N=C/c1cc(OC)c(OC)c(OC)c1	-2.9%	3%	?	-5%	-17%	-7%	6%	-15%
29	CCOc1ccc(OCC(=O)OCC(=O)Nc2ccccc2C#N)cc1	.	-18%	.	-1%	-10%	14%	.	21%
30	Cc1ccccc1CN1CCN(Cc2cc(=O)c3ccccc3[nH]2)CC1CCO (stereo unspecified)	.	-6%	.	9%	?	.	-3%	.
31	Cc1ccccc1N(C(=O)CNC(=O)c1ccco1)C(C(=O)NC1CCCCC1)c1cccnc1 (stereo unspecified)	.	-17%	.	-1%	50%[activator]	3%[46.1 µM]	20%	21%[46.1 µM]
32	Clc1cccc(-c2nnc3sc(-c4ccc5c(c4)OCO5)nn23)c1	2.8%	.	-22%	-1%	.	1%	-37%	.
33	C/C(=C\C(=O)c1ccc(Br)cc1)NNC(=O)c1ccccc1	.	83%	.	.	-16%	?	.	5%
34	CCc1nnc(NC(=O)CSc2nc(-c3ccccc3)nc3ccccc23)s1	-21%	2%	?	6%	-23%	?	7%	-20%
35	Cc1cc(Br)ccc1NC(=O)CSc1nnc(CN2CCOCC2)n1C	.	4%	.	2%	-5%	-8%[46.1 µM]	-7%	9%[46.1 µM]
36	NC(=O)NC(=O)CSc1nc(C2CCCCC2)n(-c2ccccc2)n1	-2.5%	-5%	2%	-12%	-22%	?	6%	?
37	Cc1cccc(N2CCN(C(=O)Cn3ccc4ccccc4c3=O)CC2)c1C	-5.4%	-12%	-9%	23%	?	-29%	1%	-26%
38	Cc1cccc(NC(=S)NC(C)(C)CC(C)(C)C)c1	.	-7%	.	2%	-18%	?	-26%	-14%[46.1 µM]
39	COc1cccc(NC(=O)N2CCCC2C(=O)Nc2ccc3c(c2)OCO3)c1 (stereo unspecified)	0.9%	13%	-9%	1%	12%	-32%	-1%	-6%
40	Nc1c([N+](=O)[O-])c(=O)oc2ccccc12	.	7%	.	2%	24%	-2%[46.1 µM]	.	15%[46.1 µM]
41	CCCCC(CCC(=O)O)(C(=O)OCC)c1csc(Nc2ccc(OCC)cc2)n1 (stereo unspecified)	.	0%	.	-1%	-12%	.	12%	.
42	CC1(C)C(C=C(Cl)Cl)C1C(=O)N(Cc1cccc(Cl)c1)C1CCS(=O)(=O)C1 (stereo unspecified)	-7.4%	18%	20%	-7%	-22%	?	14%	-11%
43	CC(C)(C)n1ncc2c(=O)n(Cc3ccc(Cl)c(Cl)c3)cnc21	.	23%	.	0%	-5%	2%[46.1 µM]	.	11%
44	COc1cc(/C=C2\SC(=O)N(c3ccc(Cl)cc3)C2=O)cc([N+](=O)[O-])c1O	.	-25%	.	-1%	-30%	?	2%	-6%
45	CCOC(=O)/C(=N/Nc1ccccc1)N1CCCc2ccccc21	-13%	-9%	4%	?	?	?	17%	-1%
46	Cc1cc(NC(=O)c2cc(-c3cccnc3)nc3c(C)c(C)ccc23)no1	3.0%	-5%	?	-24%	?	?	-82%	-15%
47	O=C(Nc1ccccc1C(=O)Nc1ccccc1C(=O)NCc1ccco1)c1ccco1	-17%	-16%	?	-3%	.	?	-7%	?
48	NC(=O)c1cc(S(=O)(=O)N2CCN(c3cccc(C(F)(F)F)c3)CC2)cs1	-0.2%	.	?	.	-26%	.	.	-15%[46.1 µM]
49	CCCCc1ccc(NC(=O)CC(C)(C)C)cc1	-4.5%	8%	-20%	-34%	87%[activator]	?	-46%	-20%
50	COc1ccc(N2CCN(C(=O)CN(Cc3ccc(Cl)cc3)S(C)(=O)=O)CC2)cc1	-1.6%	-10%	?	-2%	?	-20%	-5%	?
51	COc1cccc(Nc2nc(NCC3CCCO3)c3ccccc3n2)c1 (stereo unspecified)	14µM*	41%	13µM*	-16%	20µM*	?	-132%	?
52	Cc1c(NS(=O)(=O)c2cc(Br)cc3c2N(C(=O)C2CC2)CC3)c(=O)n(-c2ccccc2)n1C	.	2%	.	4%	28%	?	.	-8%
53	CC1=CC(c2ccccc2)n2nc(N3C(=O)c4ccccc4C3=O)nc2N1 (stereo unspecified)	-1.9%	19%	-7%	-5%	-22%	-25%	-8%	-5%
54	Cc1ccc2nc(SCC(=O)Nc3ccc4sc(C)nc4c3)c(C#N)cc2c1	3.2%	0%	?	4%	19%	-1%	7%	?
55	CCn1c2ccccc2c2cc(NC(=O)c3cc(OC)cc(OC)c3)ccc21	-6.2%	0%	?	-14%	-7%	?	-4%	?
56	CCc1c(C)nc2ncnn2c1NCc1cccs1	2.1%	0%	5%	-3%	.	?	4%	-27%
57	Cn1c(-c2csc(-c3cccc(C(F)(F)F)c3)n2)n[nH]c1=S	.	21%	.	1%	8%	14%	.	15%
58	COc1ccc(C2SCC(=O)N2CCc2ccc(OC)c(OC)c2)cc1 (stereo unspecified)	.	13%	.	-3%	?	.	2%	.
59	O=C(Nc1ccc2nsnc2c1)N1CCCCCC1	3.2%	-16%	-6%	12%	61%[activator]	27%	-6%	8%
60	O=C(CSc1ccc2ccccc2n1)N1CCC(c2noc3ccc(F)cc23)CC1	-5.0%	1%	-2%	-21%	?	-12%	28%	1%
61	C/C(=N\NC(=O)c1c(C)nc2ccccn12)c1cccc([N+](=O)[O-])c1	.	-15%	.	-1%	-20%	3%[46.1 µM]	.	9%
62	Cn1c(=O)c2c(nc(Br)n2Cc2nnc(N)s2)n(C)c1=O	.	-16%	.	1%	3%	-15%[46.1 µM]	6%	2%
